Six1-Eya2 blk: qHTS Assay for Inhibitors of the Six1/Eya2 Interaction | Homeobox protein SIX1 (Homo sapiens) + Protein phosphatase EYA2 (Homo sapiens), … | AlphaScreen GST-Six1/His-Eya2 binding, biochemical; stronger effect = lower value; control for the full effect not named in the record | activity change, % (no concentration beside the values) | hit rate 0.56% among 360,000 | AID 651725, 2012; in the data active = activity change below about -65%; inconclusive = about -30% to -65%; inactive = above about -30%; also: % is scaled to controls: 0 for no effect and ±100 for the full control effect; compound concentration not given in the record
Target sequence (O00167 whole entry, looked up): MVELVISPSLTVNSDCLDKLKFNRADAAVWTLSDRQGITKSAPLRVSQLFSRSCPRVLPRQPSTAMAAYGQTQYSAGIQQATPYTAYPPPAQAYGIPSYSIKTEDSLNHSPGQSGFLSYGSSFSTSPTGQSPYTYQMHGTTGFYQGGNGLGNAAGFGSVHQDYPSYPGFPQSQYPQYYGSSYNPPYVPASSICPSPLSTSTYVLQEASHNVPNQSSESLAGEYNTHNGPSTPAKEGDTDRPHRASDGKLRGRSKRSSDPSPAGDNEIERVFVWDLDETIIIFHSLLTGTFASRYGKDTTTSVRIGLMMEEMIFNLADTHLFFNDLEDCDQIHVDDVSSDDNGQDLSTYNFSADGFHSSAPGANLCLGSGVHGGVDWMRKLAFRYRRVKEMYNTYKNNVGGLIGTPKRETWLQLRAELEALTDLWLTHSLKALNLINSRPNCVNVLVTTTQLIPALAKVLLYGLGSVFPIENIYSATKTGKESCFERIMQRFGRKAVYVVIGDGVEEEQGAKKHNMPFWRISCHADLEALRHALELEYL
Target sequence (Q15475 whole entry, looked up): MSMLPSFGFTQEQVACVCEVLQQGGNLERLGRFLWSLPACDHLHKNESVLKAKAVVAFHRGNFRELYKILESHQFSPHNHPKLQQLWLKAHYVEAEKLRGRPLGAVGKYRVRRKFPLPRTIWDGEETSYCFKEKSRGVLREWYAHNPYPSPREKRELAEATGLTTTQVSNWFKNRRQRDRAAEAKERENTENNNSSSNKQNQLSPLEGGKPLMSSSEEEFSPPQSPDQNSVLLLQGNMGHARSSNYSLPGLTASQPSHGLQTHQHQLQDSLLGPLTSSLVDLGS
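Homogeneous AlphaScreen proximity assay pairing GST-Six1 with His-tagged Eya2 (added as 5X mix: 250 nM and 500 nM) in 50 mM Tris pH 8.0, 300 mM NaCl, 1 mM TCEP. Glutathione donor and nickel acceptor beads; 1 h, 37 °C, dark.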
gsp antagonist: qHTS for Antagonists of gsp, the Etiologic Mutation Responsible for Fibrous Dysplasia/McCune-Albright Syndrome: qHTS | gsp-mutant cells, cAMP HTRF, 30 min; control for the full effect not named in the record | Potency, µM (doses to about 76.9 µM), inactives show top-dose activity change, negative = inhibition, usual class: inhibitors | hit rate 0.4% among 340,000; active = falling curve of any shape with a large fitted effect; inconclusive = falling curve, mostly with a smaller effect; inactive = flat or rising curve; cell line not stated here;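 also: intracellular cAMP measured with PDE inhibitor Ro 20-1724 present during compound exposure; potency is read from the fitted curve at half-maximal effect; % is scaled to controls: 0 for no effect and ±100 for the full control effect; nearly all actives have a fitted effect of over 65% in size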
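HTRF cAMP read-out (cAMP-d2 plus anti-cAMP antibody-K in lysis buffer, 30 min RT). Before lysis, cells are exposed to compounds with […] for 30 min at 37C in DPBS containing Ca/Mg, BSA and Tween 20.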
D2 ag: Beta-Arrestin HTS for Positive Allosteric Modulators of the Human D2 Dopamine Receptor: Agonists; D(2) dopamine receptor (Homo sapiens), P14416; DiscoveRx PathHunter D2 beta-arrestin, luminescence, 90 min; 100% = 57 uM dopamine signal; activation, % (no concentration beside the values); hit rate 0.084% among 360,000; AID 624465, 2012; in the data active = activation above about 40%; inconclusive = about 15% to 40%; inactive = below about 15%; also: compound concentration not given in the record; the text of the record calls up to 30% inactive
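Agonist mode: compounds alone added to overnight-plated D2 PathHunter cells for 90 min at 37 C, with 57 uM final dopamine (EC100) defining full response. Beta-arrestin recruitment detected by chemiluminescent reagent, read after 1 h at ambient temperature.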
gsp ag: qHTS for Agonist of gsp, the Etiologic Mutation Responsible for Fibrous Dysplasia/McCune-Albright Syndrome: qHTS | Potency, µM (titrated, usually from 76.9 µM), for the others: top-dose activation (cAMP increase), hits mostly activators | gsp mutant cells, cAMP HTRF, 30 min; control for the full effect not named in the record | hit rate 0.13% among 340,000; active = well fitted activation curve with a large enough effect; inconclusive = small, poorly fitted or top-dose-only effect, or another doubt; inactive = no such curve, though single readings can be large or run the other way; cell line not stated here;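 also: phosphodiesterase inhibitor Ro 20-1724 added with compounds to block cAMP breakdown; potency is read from the fitted curve at half-maximal effect; nearly all actives have a fitted effect of over 60% in size; about a fifth of the inactives were tested at one dose only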
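Cells stably selected in G418 were plated at 2000/well, grown 16-24 hr, then given compounds in DMSO with the PDE inhibitor […] (300 uM solution added) for 30 min at 37C; cAMP was read by HTRF.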
CtBP-E1A blk: qHTS Assay for Inhibitors of the CtBP/E1A Interaction; CtBP / adenovirus E1A interaction (AlphaScreen); AlphaScreen GST-E1A/His-CtBP binding, 1536-well; stronger effect = lower value; control for the full effect not named in the record; activity change, % (concentration not given with the values); hit rate 0.49% among 340,000; AID 651724, 2012; in the data active means activity change below about -65%; inconclusive means about -30% to -65%; inactive means above about -30%; also: % is scaled to controls: 0 for no effect and ±100 for the full control effect
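Homogeneous bead-based format: GST-tagged E1A captured on glutathione donor beads, His-tagged CtBP on nickel acceptor beads; compounds precede bead addition by 2 h at 37 °C.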
D2 potentiator: Beta-Arrestin HTS for Positive Allosteric Modulators of the Human D2 Dopamine Receptor: Potentiators | D(2) dopamine receptor (Homo sapiens), P14416 | DiscoveRx D2 beta-arrestin cells, luminescence, 90 min; 100% = 57 uM dopamine signal | potentiation, % (concentration not given with the values) | hit rate 0.23% among 360,000 | AID 624464, 2012; active = potentiation of 50% or more; inconclusive = 30% to 50%; inactive = 30% or less;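 also: compound concentration not given in the record; tested on top of an EC20 dose of dopamine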
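PathHunter D2 cells, attached overnight at 37 deg C, received compound in DMSO plus dopamine at EC20 (50 nM final) for 90 min at 37 deg C. Beta-arrestin recruitment was read as luminescence after 1 h with detection reagent at ambient temperature.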
* hit, by the source's call; u = inconclusive; x = no result given; [ ] = another dose, or the depositor's remark.

| SMILES | Six1-Eya2 blk | gsp antagonist | D2 ag | gsp ag | CtBP-E1A blk | D2 potentiator |
| --- | --- | --- | --- | --- | --- | --- |
| CCO[C@H]1OC(C(=O)N2CCN(C)CC2)=C[C@@H](c2ccc(C(F)(F)F)cc2)[C@@H]1CCCO | 12.9 | -2.4% | -2.5 | x | 5.4 | -5.9 |
| COc1ccc(NC(=O)CN2CCCN(S(=O)(=O)c3ccc(F)cc3)CC2)cc1 | -0.5 | -4.7% | -1.8 | -14.3% | 1.6 | -7.5 |
| OCC(O)/C=N/Nc1nc2ccccc2s1 (stereo not given) | 0.3 | 8.8% | -0.3 | -0.4%[15.4 µM] | 3.2 | -3.2 |
| O=C(NC(c1ccccc1)c1ccc2ccccc2n1)C1CCN(CCOc2ccc(Cl)cc2Cl)CC1 (stereo not given) | -14.6 | x | -2.4 | x | u | -8.7 |
| CC(C)(C)NC(=O)CN(C(=O)C(=O)Nc1ccc2c(c1)OCCO2)C1CC1 | 3.5 | 13.1% | -2.5 | 17.8% | 5.1 | -5.7 |
| C[C@H](CO)N1C[C@H](C)[C@@H](CN(C)C(=O)NC2CCCC2)Oc2cc(Br)ccc2S1(=O)=O | 4.1 | x | -4.3 | -49.8% | -9.7 | -2.3 |
| COC(C)(C)[C@]12CC(O)(c3ccccc3)ON1[C@H]1CCCCC1N2O (stereo not given in full) | 5.0 | 0.2% | -3.7 | 0.6% | 3.4 | 17.0 |
| CC(=O)N1c2ccc(S(=O)(=O)N(C)Cc3ccccc3)cc2CC1C (stereo not given) | -0.7 | u | 2.7 | -8.4% | 5.3 | 1.1 |
| CC1CCC(NC(=O)COC(=O)c2n[nH]c(=O)c3ccccc23)CC1 (stereo not given) | 1.5 | 3.3% | -3.9 | 22.7% | 4.3 | -17.1 |
| CCOC(=O)CCNCC1COc2ccccc2O1 (stereo not given) | 12.3 | 8.0% | -1.9 | 5.0% | 6.2 | -29.3 |
| CCOC(=O)c1c(C)nc2c(C#N)cnn2c1C | -8.3 | 8.4% | -0.9 | 8.5% | -4.2 | -13.6 |
| NS(=O)(=O)c1ccc(NC(=O)CN2C(=O)C3C4C=CC(C4)C3C2=O)cc1 (stereo not given) | 0.0 | 13.5% | 8.2 | 21.1% | 0.2 | -0.3 |
| CCOC(=O)c1sc(N2C(=O)C(O)=C(C(=O)c3ccco3)C2c2ccco2)nc1C (stereo not given) | -8.9 | -20.1% | -4.1 | 12.0%[15.4 µM] | 0.7 | -0.4 |
| Cc1occc1C(=O)Nc1nccs1 | -2.8 | 9.0% | -1.0 | 13.7% | -4.0 | -5.3 |
| N#C/C(=C\c1c(N2CCCCC2)nc2ccccn2c1=O)C(=O)NCc1ccco1 | 0.8 | 4.7% | -0.4 | -31.8%[inhibitor] | -1.6 | -9.8 |
| CC(C)c1ccc(CN(C(=O)/C=C/c2ccco2)C2CCS(=O)(=O)C2)cc1 (stereo not given) | 0.7 | -3.2% | -3.9 | -6.5%[15.4 µM] | -4.7 | -8.8 |
| COc1ccccc1/C=C/C=N/n1c(-c2n[nH]c3c2CCC3)n[nH]c1=S | -8.9 | -37.7% | -6.2 | -2.5% | x | -27.0 |
| Cc1n[nH]c(C)c1Sc1ccccc1N | 0.6 | 2.2% | 2.9 | -5.5%[15.4 µM] | 1.0 | 0.2 |
| CN(C(=O)COC(=O)c1c[nH]c(=O)[nH]c1=O)C1CCCCC1 | 0.9 | 7.4% | -0.1 | -91.0%[inhibitor] | 1.8 | -18.0 |
| Cc1cc(Oc2ccccc2)nc(SCC(=O)Nc2ccccc2)n1 | 2.1 | -24.7% | 1.1 | 0.0% | 2.1 | -9.2 |
| O=C(NNC1=NCCN1Cc1ccccc1)c1cccc(C(F)(F)F)c1 | 19.6 | -3.9% | -4.3 | -10.9%[15.4 µM] | 0.0 | -16.7 |
| COc1cc(/C=N/n2nnnc2N)ccc1OCC(N)=O | -14.4 | 5.4% | -0.4 | -0.4% | x | -23.3 |
| CCOc1cc(N2CCOCC2)c(OCC)cc1NC(=O)COC(=O)C1CCCN1S(=O)(=O)c1ccccc1F (stereo not given) | -12.8 | -10.3% | -1.6 | u | x | 0.5 |
| NC(=O)CC(NC(=O)Cc1cccc2ccccc12)c1ccc(NCCCN2CCCC2=O)c([N+](=O)[O-])c1 (stereo not given) | -4.7 | 4.4% | -1.9 | 3.7% | 0.0 | -15.8 |
| C[C@@H]1[C@H]2[C@@H](O[C@@H]3O[C@H](CO)[C@@H](O)[C@H](O)[C@H]3O)OC=C(C(=O)O)[C@H]2C[C@@H]1O | 1.9 | 6.8% | 0.9 | -5.0% | 9.7 | -9.4 |
| CC(=O)c1cccc(NS(=O)(=O)c2c(C)n[nH]c2C)c1 | -1.1 | -10.4% | -2.2 | 24.1% | 0.5 | -7.5 |
| O=C(COC(=O)c1cc(=O)[nH]c2ccccc12)NC(=O)NC1CCCCC1 | -1.3 | 8.8% | -7.6 | -2.4%[15.4 µM] | 4.0 | -12.1 |
| Cn1c(CCN2CCCCC2)nc2cc(NC(=O)COc3ccc(Cl)cc3)ccc21 | -0.5 | 7.5% | 0.1 | 9.1% | 1.7 | -28.0 |
| CN1CCN(C2=NC3(CCCC3)C(C#N)C(=O)N2)CC1 (stereo not given) | 3.2 | 7.1% | 0.2 | -4.8% | 1.1 | 4.6 |
| CC(C)N(C(=O)Cn1cc(SCC(=O)NCC2CCCO2)c2ccccc21)C(C)C (stereo not given) | 4.9 | 1.1% | -6.9 | -11.6%[15.4 µM] | -7.4 | -6.4 |
| COc1ccc(C2=C/C(=C\c3ccc(OC(C)=O)cc3)C(=O)O2)cc1 | -0.2 | 10.0% | 0.3 | 8.0% | 7.8 | -3.4 |
| Cc1ccccc1S(=O)(=O)Oc1ccccc1C(=O)Oc1ccccc1 | 20.8 | -4.5% | -0.4 | -1.1% | 22.6 | 1.8 |
| COC(=O)c1cc(C(=O)Nc2ccc(C)cn2)cc([N+](=O)[O-])c1 | -4.5 | 1.1% | 1.9 | -38.8%[inhibitor] | -7.5 | 0.9 |
| CCC(CC)NC(=O)c1cccc(NC(=O)C(C)C)c1 | 3.0 | -2.3% | 2.1 | -8.0% | 8.7 | 2.7 |
| CCCCCCn1c(=O)[nH]c2nc3cc(N)c(C)cc3nc2c1=O | u | -8.1% | 6.7 | 28.8% | u | u |
| Cc1nc2ccccc2c2oc(C(=O)NCC3COc4ccccc4O3)cc12 (stereo not given) | u | 39.8µM* | 12.9 | u | -29.0 | 0.6 |
| O=C(N/C(=C/c1cccc(Br)c1)C(=O)N1CCOCC1)c1ccco1 | 4.5 | x | -1.4 | -22.3% | 4.0 | -4.2 |
| Cc1cc(Br)ccc1NC(=O)CSCc1c(C)noc1C | 4.4 | -0.6% | 0.5 | 2.2% | 2.3 | -3.0 |
| CCCS(=O)(=O)c1c(S(=O)(=O)CCC)c2ccc(C(N)=O)cn2c1C(=O)c1ccc(OC)cc1 | -2.8 | -4.1% | -3.6 | -0.2%[15.4 µM] | 3.3 | 2.5 |
| Cc1cc(C)nc(/N=C(\N)N2CCCCC2)n1 | -5.1 | 3.6% | -1.9 | -24.0% | -1.1 | -4.6 |
| COc1cc(OC)cc(N(C(=O)CNC(=O)c2cccs2)C(C(=O)NCC2CCCO2)c2ccc(OC)c(OC)c2)c1 (stereo not given) | 3.3 | -1.5% | 3.1 | 3.0% | 0.8 | 5.6 |
| O=C(CN1C(=O)NC2(CCCC2)C1=O)OCCOc1ccccc1Cl | 1.3 | 1.1% | -1.5 | 7.7% | 0.9 | 3.2 |
| CCOC(=O)C(C)Sc1nc(C2CC2)cc(C(F)(F)F)c1C#N (stereo not given) | 31.9 | -8.6% | -0.2 | 15.4% | 12.4 | -5.9 |
| COCCCN(C(=O)Cn1ncc2c(=O)oc3ccc(C)cc3c21)C(C)c1ccncc1 (stereo not given) | 23.4 | 0.3% | 0.9 | u | 24.1 | -3.2 |
| Cc1nn(C)cc1C(C)NC(=O)c1cc(COc2cccc3cnccc23)on1 (stereo not given) | 8.6 | -15.9% | -1.3 | -43.3%[inhibitor] | -1.4 | -3.7 |
| Cc1ccc(C)c(N2CCN(CCCNC(=O)Cn3cc4c(n3)CCCCC4)CC2)c1 | -2.4 | 4.8% | 2.5 | 17.7% | -3.8 | -11.1 |
| COc1cc(/C=C/C(=O)OCC(=O)c2ccc[nH]2)ccc1O | 24.2 | x | -2.8 | -13.3% | -2.7 | -19.9 |
| Cc1cc([N+](=O)[O-])nn1CCCC(=O)Nc1cccnc1Cl | 5.2 | 6.2% | -2.1 | 6.5% | x | -7.5 |
| Cn1c(=O)n(C)c2cc(NC(=O)c3ccccc3NS(C)(=O)=O)ccc21 | 1.8 | -1.2% | -1.3 | 4.4% | x | u |
| O=C(CCC(=O)N1CCN(S(=O)(=O)c2ccc3ccccc3c2)CC1)NCC(F)(F)F | 24.1 | -24.4% | -4.9 | -23.4% | 0.1 | -8.4 |
| COc1cc(/C=N/NC(=O)c2ccccc2Cl)ccc1Oc1ccc([N+](=O)[O-])cn1 | -11.8 | 0.7% | -1.5 | 12.0% | x | 0.6 |
